H5N1 antiviral: MDCK cell protection from H5N1 avian flu; cytopathic effect, luminescence, 72 h; stronger effect = higher value; no value below 0 was filed and about half of the inactive calls have no number; reference of the scale not given here; AID 740; inhibition, % at 50 µM; 96,000 compounds, 0.07% hits; in the data active means inhibition above about 25%
An asterisk follows results filed as active; i = inactive.

| canonical_smiles | H5N1 antiviral |
| --- | --- |
| Cc1ccc(S(=O)(=O)NCCC(=O)O)cc1 | 0.5 |
| CCOc1ccc(C(C)=O)cc1N1C(=O)C2C3C=CC(C3)C2C1=O (stereo unspecified) | 0.3 |
| CC(C)CC(=O)Nc1ccc(C(=O)COc2ccc(-c3nnco3)cc2)cc1 | 1.3 |
| c1ccc(CCNc2c3c(nc4ncnn24)CCC3)cc1 | 0.5 |
| Cc1nc(NC(=O)c2ccccc2)sc1-c1csc(NCCc2ccccc2)n1 | i |
| CCOc1ccc(NC(=O)C2CC(=O)NC(N3CCc4ccccc43)=N2)cc1 (stereo unspecified) | i |
| COc1cccc(C(=O)CSc2nnc(CNS(=O)(=O)c3ccc(C)cc3)n2C)c1 | i |
| CCOc1cc(CN2CCN(C(=O)CC(C)C)CC2)ccc1OC | i |
| Cc1cc(C)n(C(=O)c2ccc(NC(=O)CC(C)C)cc2)n1 | i |
| O=S(=O)(Nc1ccc2c(c1)OCO2)c1ccc(Br)s1 | 1.2 |
| Cc1cccn2c(=O)c3cc(C(=O)NCC4CCCO4)c(=N)n(Cc4cccnc4)c3nc12 (stereo unspecified) | 1.7 |
| COc1cc(NC(=O)CSc2nnc(C)s2)cc(OC)c1OC | i |
| CCN1C(=O)CC(N2CCN(CC(=O)NC(C)C)CC2)C1=O (stereo unspecified) | i |
| Cc1cc(NC(=O)CSc2ccc3nnc(-c4ccc(Cl)cc4)n3n2)no1 | 0.1 |
| COc1ccc(N2CCN(C(=O)CCCn3c(=S)[nH]c4cc5c(cc4c3=O)OCO5)CC2)cc1 | i |
| COc1ccc(C(=O)NN2CCCCC2)cc1OC | 3.4 |
| Cc1nn(-c2cccc(Cl)c2)c2nc(-c3ccco3)cc(C(=O)O)c12 | 0.9 |
| Cc1ccc(S(=O)(=O)NC(=O)c2cc(C)n(CCCN3CCOCC3)c2C)cc1 | i |
| CCOC(=O)CN(C(=O)CSc1nnc(CNc2ccc(F)cc2)o1)c1ccccc1 | 1.0 |
| COc1ccc(CCN2C(=O)CC(C(N)=O)SC2=Nc2ccccc2)cc1OC (stereo unspecified) | i |
| Cc1cccc(NC(=O)N[C@@H](C)C(=O)O)c1 | i |
| COc1ccc(C2C(=O)N(C3CCCCC3)CC(=O)N2CCc2ccccc2)cc1OC (stereo unspecified) | 0.5 |
| Cc1ccc(-n2nnnc2SCn2nnc3ccccc3c2=O)cc1 | 0.9 |
| COCCn1nnnc1C(c1cccs1)N1CCN(c2ccccc2)CC1 (stereo unspecified) | 0.1 |
| CCN(CC)c1ccc(N2C(=O)/C(=C\c3cccnc3)SC2=S)cc1 | i |
| Cc1ccccc1C(=O)c1c[nH]c(C(=O)NCCCn2ccnc2)c1 | 0.1 |
| CC[C@@H](C(=O)n1nc(C)cc1C)[C@H](NS(=O)(=O)c1ccc(C)cc1)c1ccccc1 | 2.7 |
| O=C(O)C1CC(=O)N(c2ccc(Br)cc2)C1 (stereo unspecified) | 0.9 |
| COCCCn1c(SCc2nnc(-c3ccccc3)o2)nc2sc3c(c2c1=O)CCC3 | 0.2 |
| CC(=O)OC(C(=O)NCS(=O)(=O)c1ccc(C)cc1)c1cccnc1 (stereo unspecified) | 0.4 |
| CCCCOc1ccc(C(=O)NCc2ccncc2)cc1 | i |
| Cc1ccn2cc(CCNC(=O)CC(C)(C)C)nc2c1 | i |
| CCCc1nc2oc3c(OC)ncnc3c2c2c1COC(C)(C)C2 | 1.4 |
| Cc1ccc2cc(CCNC(=O)c3ccc(Br)o3)c(=O)[nH]c2c1 | i |
| COc1cccc(-n2ccnc2SCC(=O)Nc2cc(OC)ccc2OC)c1 | 0.5 |
| O=C(Nc1cccc(C(F)(F)F)c1)c1ccc(Cn2cc(Br)cn2)o1 | 0.8 |
| O=C(Nc1ccc(-c2nc3cccnc3s2)cc1)c1ccc(Br)o1 | 3.7 |
| O=C(CN1CCN(S(=O)(=O)c2ccc3ccccc3c2)CC1)N1CCc2ccccc2C1 | 1.9 |
| CSCCC(N=Cc1c(O)n(-c2ccc(Cl)cc2)c(=O)[nH]c1=O)C(=O)OC(C)(C)C (stereo unspecified) | i |
| Cc1noc(C)c1COC(=O)CCCOc1ccc(Cl)cc1Cl | 0.1 |
| CCOc1ccccc1NC(=O)CSc1ccccc1 | 0.6 |
| CCOCCN1CCC(OC(C)=O)C(C)C1 (stereo unspecified) | 0.8 |
| CCOCCCNc1nc2c(C)cccn2c(=O)c1/C=C1\SC(=S)N(CC(C)C)C1=O | i |
| O=C(NCc1ccco1)c1ccccc1NC(=O)C1CC(=O)N(c2ccc(Cl)cc2)C1 (stereo unspecified) | 0.3 |
| Cc1nc(NCc2ccco2)c2c(C)c(C)sc2n1 | 2.9 |
| CC(C)=CC(=O)N1CCCc2ccccc21 | 1.7 |
| Cc1nnc(C)c2c(C)n(Cc3ccc4c(c3)OCO4)c(C)c12 | 3.1 |
| O=C(CCN1CCCCC1)Nc1ccc(Br)cc1 | i |
| Cc1nn(-c2ccccc2)cc1/C=N/O | 0.6 |
| CC(=O)N1CCN(c2ccc(NCc3ccc(C)s3)cc2)CC1 | 0.2 |

Following part
SMILES,H5N1 antiviral
O=C(OCCO)c1cc(Cl)c(C(=O)OCCO)cc1Cl,i
COc1ccc(-n2nnc3c(=O)n(C/C=C/c4ccccc4)cnc32)cc1,0.6
COc1ccc(CNC(=O)C(OC(C)=O)c2ccccn2)cc1 (stereo unspecified),0.4
CN1CCN(S(=O)(=O)c2ccc(NC(=O)C3CCCO3)cc2)CC1 (stereo unspecified),0.1
O=C(COc1ccc(S(=O)(=O)N2CCc3ccccc32)cc1Cl)NCc1ccccn1,1.4
O=C(NCCN1C(=O)C2C3C=CC(C3)C2C1=O)Nc1ccccc1O (stereo unspecified),1.5
Cc1ccc(-n2c(C)cc(C(=O)OCC(=O)N(C)C3CCS(=O)(=O)C3)c2C)cc1 (stereo unspecified),i
Cc1onc(-c2ccccc2)c1C(N)=O,0.1
O=C(CCC(=O)N1CCN(S(=O)(=O)c2ccc(Cl)cc2)CC1)NC1CCCc2ccccc21 (stereo unspecified),i
Cc1ccc(S(=O)(=O)N2CCOCC(=O)NCCOCCNC(=O)COCC2)cc1,0.5
O=C(Oc1ccc(Cl)c2cccnc12)N1CCCCC1,i
Clc1ccc(-c2nnnn2-c2ccc(Cl)c(Cl)c2)cc1Cl,2.7
CC(C)C(c1nnnn1Cc1ccc(F)cc1)N1CCN(Cc2ccc3c(c2)OCO3)CC1 (stereo unspecified),0.3
O=c1[nH]c(=O)n(Cc2ccccc2)c(O)c1C=NCCCO,1.2
CCOc1c(C)cc2[nH]c(CCC(=O)O)nc2c1C,i
C=CCn1nnc2sc3c(c2c1=O)CCC(C)C3 (stereo unspecified),1.4
CCCCCCOC(=O)c1ccc(OC(=O)c2cccnc2)cc1,i
CC(=O)c1cc(C#N)c(SCC(=O)C(C)(C)C)nc1C,i
O=C(COC(=O)c1cc(=O)[nH]c2ccccc12)NC(=O)NC1CCCCC1,i
CCOC(=O)Cc1csc(NC(=O)c2ccc(S(=O)(=O)N3CCCC3)cc2)n1,i
Cc1nc2ccc(S(=O)(=O)N(C)CC(=O)N3CCc4ccccc4C3)cc2s1,0.5
Cc1ccc2c(CSc3nnc(C4CC4)n3N)cc(=O)oc2c1C,2.2
Cc1ccc(C(=O)Nc2nncs2)cc1S(=O)(=O)N1CCOCC1,1.8
COC(=O)C(C)Sc1nc2c(c(=O)[nH]c(=O)n2C)n1CCCc1ccccc1 (stereo unspecified),i
CC(C)(C)C(=O)NNC(=O)CCCOc1ccc(Cl)cc1Cl,i
COc1cc(-c2nnc(CSc3nnc4nc(C)cc(C)n34)o2)cc(OC)c1OC,0.3
Cc1ccccc1C(=O)NC(=S)Nc1ccc(S(=O)(=O)N(C)c2ccccc2)cc1,i
CC(C)CCNC(=O)c1c(N)n(CC2CCCO2)c2nc3ccccc3nc12 (stereo unspecified),i
O=c1cc(CO)oc(CN2CCN(Cc3ccccc3)CC2)c1O,0.2
Cc1ccccc1Cn1cnc2c(NS(C)(=O)=O)c(C)c(C)cc21,0.5
COc1ccc(C(=O)N2CCN(c3nnnn3-c3ccccc3)CC2)cc1OC,0.0
C=CCOc1ccc(Cl)cc1CNCCCN1CCOCC1,i
COc1ccc(Nc2cc(C)nc(N3CCOCC3)n2)cc1,1.6
CCOC(=O)c1cc(-c2ccccc2)n(CCC(=O)O)c1C,i
COc1ccc(Cl)cc1NC(=O)CC(C)c1ccccc1 (stereo unspecified),1.6
COc1ccc(N2C(=O)CCC(C(=O)N3CCCCC3)C2c2ccc(OC)c(OC)c2)cc1 (stereo unspecified),1.2
O=C(c1ccco1)c1cn(Cc2ccccc2)c2ccccc12,i
COc1ccccc1S(=O)(=O)Nc1ccc(-c2nnc3n2CCCCC3)cc1,i
COc1ccc(-n2c(=O)cc(N3CCN(Cc4ccccc4)CC3)[nH]c2=O)cc1,i
O=C(Nc1ccc2c(c1)OCCO2)C1CCCN(S(=O)(=O)c2cccs2)C1 (stereo unspecified),1.2
CCOc1nc(OCC)nc(-n2cc(-c3ccccc3)nn2)n1,0.1
COc1ccc(Oc2nc(SC)nc3ccsc23)cc1,2.5
Cc1ccc(CSc2nnc(Nc3ccc(C)cc3)s2)cc1,0.4
Cc1nnc(NC(=O)c2ccc(S(=O)(=O)N3CCCCCC3)cc2)o1,0.2
CCOC(=O)c1ccccc1NC(=O)CN(c1ccccc1C)S(C)(=O)=O,2.9
Cc1cc(NCCN2CCOCC2)n2nc(C)c(-c3ccc(Cl)cc3)c2n1,i
CC(NC(=O)C12CC3CC(CC(C3)C1)C2)c1ccc2c(c1)OCCO2 (stereo unspecified),2.1
O=C(c1cn(-c2ccccc2)nc1-c1ccc(Cl)s1)N1CCOCC1,4.0
O=C(NNS(=O)(=O)c1ccccc1[N+](=O)[O-])c1ccc(O)cc1,i
CCOC(=O)C1CCCCN1Cc1cccc(OC)c1OC (stereo unspecified),i
Cc1cc(CNC(=O)c2cc(Br)ccc2Cl)nn1C,0.8
O=C(Cn1c(C(=O)N2CCc3ccccc3C2)cc2sccc21)c1ccccc1,0.1
CCCCn1c(SCC(=O)N2CCCC2)nnc1-c1ccccc1,1.5
Cc1nnc(NC2CCCCC2)[nH]c1=O,0.2
O=C1c2cccnc2C(Nc2ccc(S(=O)(=O)N3CCCCCC3)cc2)N1Cc1ccccc1 (stereo unspecified),0.7
N#CC1=C(N)Oc2c(oc(CO)cc2=O)C1c1ccsc1 (stereo unspecified),1.2
CN(C)CCC(=O)c1ccc(Cl)cc1,0.0
CC(C)N(CCn1c(=S)[nH]c2ccccc2c1=O)C(C)C,i
O=C1C2C(c3ccccc3)C=CC(c3ccccc3)C2C(=O)N1CCCO (stereo unspecified),1.0
CCN1CCN(C(=O)Cn2ncc3c2-c2ccccc2OC3)CC1,i

Reformatted: 4 of the compounds above
Compound: O=C(NNS(=O)(=O)c1ccccc1[N+](=O)[O-])c1ccc(O)cc1
  H5N1 antiviral: i

Compound: CCOC(=O)C1CCCCN1Cc1cccc(OC)c1OC (stereo unspecified)
  H5N1 antiviral: i

Compound: Cc1cc(CNC(=O)c2cc(Br)ccc2Cl)nn1C
  H5N1 antiviral: 0.8

Compound: O=C(Cn1c(C(=O)N2CCc3ccccc3C2)cc2sccc21)c1ccccc1
  H5N1 antiviral: 0.1

(more compounds)
SMILES,H5N1 antiviral
COc1c(F)c(F)c(C(=O)Nc2ccc(N3CCN(C(C)=O)CC3)c(Cl)c2)c(F)c1F,3.4
Cc1ccc(-c2cc(C(=O)N/N=C/c3ccco3)[nH]n2)cc1,i
Cn1c(C(=O)N2CCCC(C(=O)NCCN3CCOCC3)C2)cc2sccc21 (stereo unspecified),0.4
CC(Sc1nnc2c(n1)C1(C)CCC2C1(C)C)C(=O)Nc1ccccc1 (stereo unspecified),3.3
CCCCSc1nc2c(cc1C#N)CCC2,0.9
Nn1c(-c2ccccn2)nnc1-c1ccccn1,1.6
O=c1c2ccccc2nc(SCc2nnc(-c3ccccc3)o2)n1-c1ccc(F)cc1F,i
Cc1ccc(N2C(=O)CC(NCc3ccc4c(c3)OCO4)C2=O)cc1Cl (stereo unspecified),0.3
O=[N+]([O-])c1ccc(-c2nc(-c3cccs3)c(-c3cccs3)[nH]2)cc1,12
CCOC(=O)c1cccc(S(=O)(=O)N(CCO)Cc2cc3cc(OC)ccc3[nH]c2=O)c1,i
CCOC(=O)c1c(NC(=O)C(C)NCc2ccco2)sc2c1CCC(C)C2 (stereo unspecified),2.0
ONC(=Nc1ccccc1)C(=Nc1ccccc1)NO,0.3
CC(=O)Nc1cccc(NC(=O)CSc2nnc(Cc3cccn3C)n2-c2ccc(C)cc2)c1,1.8
Cc1ccc(-c2nc(=S)c3c(n2Cc2ccco2)CC(C)(C)OC3)cc1,i
Cc1ccc(C)c(NC(=S)NNC(=O)c2ccco2)c1,0.3

Reformatted as labelled records: part of the list above
Cc1ccc(-c2cc(C(=O)N/N=C/c3ccco3)[nH]n2)cc1
- H5N1 antiviral: i

Cn1c(C(=O)N2CCCC(C(=O)NCCN3CCOCC3)C2)cc2sccc21 (stereo unspecified)
- H5N1 antiviral: 0.4

CCCCSc1nc2c(cc1C#N)CCC2
- H5N1 antiviral: 0.9

Cc1ccc(C)c(NC(=S)NNC(=O)c2ccco2)c1
- H5N1 antiviral: 0.3

The results go on:
SMILES,H5N1 antiviral
O=C(Cn1cnc2scc(-c3ccc(F)cc3)c2c1=O)N1CCOCC1,i
Cc1ccc(S(=O)(=O)NCCSc2nnnn2-c2cc(C)ccc2C)cc1,1.5
c1ccc(CCc2ccccc2-c2nc(-c3cccnc3)no2)cc1,0.2
CCOc1ccc(OCC)c(NC(=O)C2CCN(S(=O)(=O)c3cnc[nH]3)CC2)c1,i
Cc1cc(C)cc(NC(=O)CN2C(=O)NC(C)(c3ccccc3)C2=O)c1 (stereo unspecified),1.0
C/C(=N/NC(=O)c1ccco1)c1cccc(NC(=O)c2ccc(C)o2)c1,0.2
O=C(OCC(=O)N1CCN(c2ccccc2)CC1)C1=COCCO1,0.6
Cc1cccc2sc(NC(=O)Cn3cccc3)nc12,3.2
CCCCNS(=O)(=O)c1ccc(OC)c2ncccc12,i

Source: PubChem (SRMLSC)

An excerpt; the hit share may differ from the screen's.
